Cruzain inh Det: cruzain (T. cruzi) inhibition with detergent; P25779; purified cruzain, Z-FR-AMC fluorescence, 0.01% Triton; Potency, µM, for the others: max response, negative = inhibition, actives largely listed as inhibitors; 200,000 tested, 0.43% active; active = well fitted curve in the direction sought with a large enough effect; inconclusive = small, poorly fitted or top-dose-only effect, or another doubt; inactive = no such curve, though single readings can be large; an effect the other way counts as inactive or inconclusive;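 also: plate controls were neutral wells for no effect and buffer without enzyme for full effect; nearly all actives have a fitted effect of over 40% in size; top concentration of the series not given in the record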
Target sequence (P25779 123-467 limits assumed): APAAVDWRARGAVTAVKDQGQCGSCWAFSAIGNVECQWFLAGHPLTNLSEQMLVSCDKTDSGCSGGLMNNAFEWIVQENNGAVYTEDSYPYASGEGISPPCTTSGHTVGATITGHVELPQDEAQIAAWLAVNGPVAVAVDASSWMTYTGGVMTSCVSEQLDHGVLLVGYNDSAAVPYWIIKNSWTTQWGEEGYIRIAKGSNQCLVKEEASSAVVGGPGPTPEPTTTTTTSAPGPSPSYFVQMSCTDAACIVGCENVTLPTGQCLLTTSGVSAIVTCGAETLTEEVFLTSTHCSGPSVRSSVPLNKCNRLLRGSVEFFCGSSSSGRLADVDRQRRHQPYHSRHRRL
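In this qHTS format, compounds are incubated with 1.5 nM cruzain for 15 min at room temperature before 2 uM Z-FR-AMC is added. Release of AMC is followed at 360/450 nm, and progress is taken as the 60 s fluorescence difference.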
StopGo reporter: lowers the luciferase signal of an FMDV 2A StopGo reporter; human cells with a luciferase reporter of 2A StopGo recoding; control for the full effect not named in the record; Potency, µM (titrated, usually from 57.9 µM), for inactives: top-dose signal change, negative = less light; 410,000 tested, 1.2% active; active = well fitted falling curve with a large enough effect; inconclusive = small, poorly fitted or top-dose-only effect; inactive = no such curve, though single readings can be large or run the other way; tested in HEK293T cells; also: % is scaled to controls: 0 for no effect and ±100 for the full control effect; nearly all actives have a fitted effect of over 45% in size; luciferase light after 4 h
Marburg entry inh: Marburg virus entry inhibition | Marburg virus pseudotyped entry inhibition, cell reporter; control for the full effect not named in the record; about a third of the inactives were read at about 46 µM | Potency, µM (doses to about 37.8 µM), without a hit: top-dose activity change, negative = inhibition, usual class: inhibitors | 300,000 tested, 1.8% active | AID 540276; active = well fitted inhibition curve with a large enough effect; inconclusive = small, poorly fitted or top-dose-only effect, or effect the other way; inactive = flat fitted curve, though single readings scatter; tested in HEK293 cells; about a fifth of its hits are not listed in these tables; also: % is scaled to controls: 0 for no effect and ±100 for the full control effect; luciferase read-out
NS1 inh: blocks influenza NS1 protein function. S. cerevisiae slowed by influenza A NS1, growth recovery by OD600. AID 2326. Potency, µM (titrated, usually from 46.1 µM), without a hit: top-dose activity, positive = more growth. 270,000 tested, 0.4% active; also: actives are rising curves; nearly all actives have a fitted effect of over 50% in size
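A cell-based growth assay was used: compounds that relieve NS1-induced slow growth of budding yeast raise OD600. Assay medium was yeast nitrogen base with ammonium sulphate and -URA supplement, pH 6.0, with 2% galactose.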
RE007 growth inh: less growth of the S. pombe RE007 Vpr strain; S. pombe RE007 Vpr strain, BacTiter-Glo ATP luminescence, 24 h; control for the full effect not named in the record; Potency, µM (highest dose often 92.2 µM), for inactives: at the highest dose activity change, negative = less growth; 360,000 tested, 0.21% active; AID 651644; active = well fitted falling curve with a large enough effect; inconclusive = small, poorly fitted or top-dose-only effect; inactive = no such curve, though single readings can be large or run the other way;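 also: % is scaled to controls: 0 for no effect and ±100 for the full control effect; nearly all actives have a fitted effect of over 50% in size; the assay follows cell death caused by Vpr and the record does not say whether a fall means rescue or toxicity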
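Fission yeast strain RE007, carrying one chromosomally integrated HIV-1 vpr copy, was seeded at OD 0.01 in PMG+AL medium with 23 nL pinned compound. After 24 h at 30 °C and 99% humidity, viability was read by BacTiter-Glo luminescence.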
SARS PLpro yeast: blocks SARS-CoV papain-like protease in a yeast assay; S. cerevisiae expressing SARS-CoV PLpro, growth rescue; control for the full effect not named in the record; Potency, µM (titrated, usually from 32.9 µM), without a hit: at the highest dose activity, positive = growth rescue; 330,000 tested, 0.19% active; also: 0% is about no effect; nearly all actives have a fitted effect of over 55% in size; growth read by luminescence after 48 h
Lassa entry inh: blocks Lassa virus binding to or entry into cells; Potency, µM (series often up to 37.9 µM), inactives show at the highest dose activity change, negative = inhibition, actives largely listed as inhibitors; Lassa virus pseudotype entry inhibition, cell reporter; control for the full effect not named in the record; AID 540256; 300,000 tested, 1.2% active; active means well fitted inhibition curve with a large enough effect; inconclusive means small, poorly fitted or top-dose-only effect, or effect the other way; inactive means flat fitted curve, though single readings scatter; tested in HEK293 cells; also: % is scaled to controls: 0 for no effect and ±100 for the full control effect; nearly all actives have a fitted effect of over 50% in size; luciferase read-out
Cruzain noTriton: blocks cruzain activity in detergent-free assay | P25779 | purified cruzain, Z-FR-AMC fluorescence, no detergent | Potency, µM, for inactives: max response, negative = inhibition, actives largely listed as inhibitors | 200,000 tested, 2.3% active | AID 1476; active = well fitted curve in the direction sought with a large enough effect; inconclusive = small, poorly fitted or top-dose-only effect, or another doubt; inactive = no such curve, though single readings can be large; an effect the other way counts as inactive or inconclusive;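 also: plate controls were enzyme without inhibitor for no effect and buffer without enzyme for full effect; nearly all actives have a fitted effect of over 40% in size; top concentration of the series not given in the record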
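Purified cruzain at 1.5 nM, pre-incubated 15 min with compound at room temperature in 100 mM sodium acetate pH 5.5, 5 mM DTT, 0.00005% Triton X-100. Reaction started with 2 uM Z-FR-AMC; AMC fluorescence increase over 60 s gives rate.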
* marks the source's active call; other numbers are inactive results; ? = inconclusive; . = not tested or not shown; & = joins results of further samples; [ ] = another dose, or the depositor's remark. Unless noted, calls follow the shape of the dose curve; as a rule, active means well fitted rising curve with a large enough effect; inconclusive means small, poorly fitted or top-dose-only effect; inactive means no such curve, though single readings can be large or run the other way. Potency is read from the fitted curve at half-maximal effect. Rows were taken by chance. About 4.6% of those tested had a hit in this group.

SMILES | Cruzain inh Det | StopGo reporter | Marburg entry inh | NS1 inh | RE007 growth inh | SARS PLpro yeast | Lassa entry inh | Cruzain noTriton
NS(=O)(=O)c1cccc(NC(=O)COC(=O)Cc2ccc(Cl)cc2)c1 | . | -12% | 1%[46.1 µM] | . | -11% | 6% | -9%[46.1 µM] | .
COc1ccc(/C=C/C(=O)OCC(=O)c2c(N)n(C)c(=O)n(C)c2=O)cc1 | -7.6% | -19% | -10% | 13% | 8% | 1% | 0% | 2%
CN(Cc1nccn1C)C(=O)C1CCC(=O)N(CCc2ccc(Cl)cc2)C1 (stereo not drawn) | . | -13% | 3% | 2% | 0% | 0% | 11% | .
CSCC[C@H](NC(=O)Cc1ccc(Cl)cc1)C(=O)N1CCC2(CC1)NCCc1[nH]cnc12 | . | 27% | 11%[46.1 µM] | 2% | 5% | -2% | 16%[46.1 µM] | .
Cc1ccc(S(=O)(=O)CC2CSc3nnc(C)c(=O)n32)cc1 (stereo not drawn) | -1.6% | -12% | 1% | 11% | 9% | -2% | 8% | -2%
Cc1ccc(NC(=O)c2c(-c3ccccc3)noc2C)nc1 | -3.1% | 3% | ? | 13% | 2% | 6% | 0% | 2%
O=C(c1ccc(Cl)nc1)N1CCc2ccccc2C1 | 0.9% | 0% | -8% | -8% | -12% | 4% | 18% | 3%
O=C(CNC(=O)c1ccc(Cl)cc1)OCN1C(=O)c2ccccc2C1=O | . | 2% | 9% | . | 9% | -1% | 0% | .
O=C(Cn1ncc(Cl)c(Cl)c1=O)N1CCN(S(=O)(=O)c2ccc3ccccc3c2)CC1 | -3.1% | 28µM* | 1.8µM* | 19% | 16% | -18% | ? | ?
COc1ccc(OC(=O)C2CC(=O)N(c3ccc(C)cc3)C2)cc1 (stereo not drawn) | . | 17% | 30%[46.1 µM] | -35% | 14% | -2% | -2% | .
N#CC1(Cc2ccc([N+](=O)[O-])cc2)c2ccccc2C=CN1C(=O)c1ccccc1 (stereo not drawn) | -2.6% | -4% | ? | 3% | 1% | 4% | -6% | 25µM*
CCCCn1cnc2c1c(=O)n(C)c(=O)n2C | 0.8% | 2% | -13% | -6% | -1% | 10% | -5% | -8%
Cc1nc([N+](=O)[O-])c(N2CCN(C)CC2)n1Cc1ccccc1 | 1.0% | 20% | ? | 11% | 5% | 0% | 3% | -4%
CCOC(=O)C1CCCN(C(=O)c2cc(-c3ccncc3)nc3ccccc23)C1 (stereo not drawn) | . | -15% | -5% | . | 4% | ? | -1% | .
COCCNC(=O)CN(C(=O)CCC(=O)Nc1ccccn1)c1ccc(F)cc1 | 6.5% | -17% | ? | -9% | -6% | 3% | 8% | 2%
O=C1CC(N2CCN(c3nc4ccccc4s3)CC2)C(=O)N1c1ccc(F)cc1 (stereo not drawn) | -5.4% | ? | 15% | -12% | ? | -16% | 5% | ?
COc1ccc2oc(N)nc2c1 | . | 17% | 11% | . | -1% | . | 13% | .
COc1ccc(S(=O)(=O)N2CCN(C(=O)CN3C(=O)NC4(CCCC4)C3=O)CC2)cc1 | . | -14% | . | 3% | -5% | 5% | . | .
CCCCNCCCOc1ccc(C)cc1Br | . | -19% | . | 5% | -8% | 0% | . | .
c1ccc2c(N3CCOCC3)c3c(nc2c1)CCC3 | . | -16% | . | 1% | 16% | -5% | . | .
O=c1oc2ccccc2n1Cc1ccccc1F | . | -19% | . | 5% | 2% | 1% | . | .
O=C(CSC1=Nc2ccccc2C2=NC(CC(=O)NCc3ccco3)C(=O)N12)NCC1CCCO1 (stereo not drawn) | -0.5% | -13% | 2%&2% | 7% | 6% | -3% | 3% | -1%
O=C(NCC(=O)N1CC=C(c2ccccc2)CC1)c1ccc(F)cc1 | . | -2% | 8% | . | 14% | 2% | ? | .
OCCCNC(=S)Nc1ccc2nccnc2c1 | . | 32%[activator] | . | 3% | 2% | 0% | . | .
COc1ccc(NCC(=O)Nc2ccc(Cl)cc2C)c(OC)c1 | -2.8% | -13% | 6% | -20% | -15% | -17% | 3% | ?
COc1ccc(OC2CCN(S(=O)(=O)c3cccc(F)c3)CC2)cc1 | -7.5% | ? | -3%[46.1 µM] | 1% | -7% | -4% | -28%[46.1 µM] | -2%
O=C(NC1CCN(Cc2ccccc2)CC1)C1COc2ccccc2O1 (stereo not drawn) | 3.2% | -6% | 7% | -8% | -6% | -2% | -21% | 2%
O=C(CCN1C(=O)c2ccccc2C1=O)Oc1ccc2ccccc2c1 | 0.2% | 15% | 3% | -20% | -6% | -6% | -17% | -3%
Cc1nccn1-c1ccc(C(F)(F)F)cc1NC=O | 0.7% | 5% | 6% | 3% | -9% | 0% | 8% | -5%
CN(C)c1ccc(C(CC(=O)c2ccccc2)C2CCCCC2=O)cc1 (stereo not drawn) | -0.9% | 15% | 19%[46.1 µM] | -1% | -7% | -9% | 1% | 6%

Single records (already shown).
O=C(CSC1=Nc2ccccc2C2=NC(CC(=O)NCc3ccco3)C(=O)N12)NCC1CCCO1 (stereo not drawn) is listed as Cruzain inh Det = -0.5%; StopGo reporter = -13%; Marburg entry inh = 2%&2%; NS1 inh = 7%; RE007 growth inh = 6%; SARS PLpro yeast = -3%; Lassa entry inh = 3%; Cruzain noTriton = -1%
O=c1oc2ccccc2n1Cc1ccccc1F is listed as Cruzain inh Det = .; StopGo reporter = -19%; Marburg entry inh = .; NS1 inh = 5%; RE007 growth inh = 2%; SARS PLpro yeast = 1%; Lassa entry inh = .; Cruzain noTriton = .

The main list resumes; the 2 compounds before the break are reprinted first.
SMILES | Cruzain inh Det | StopGo reporter | Marburg entry inh | NS1 inh | RE007 growth inh | SARS PLpro yeast | Lassa entry inh | Cruzain noTriton
Cc1nccn1-c1ccc(C(F)(F)F)cc1NC=O | 0.7% | 5% | 6% | 3% | -9% | 0% | 8% | -5%
CN(C)c1ccc(C(CC(=O)c2ccccc2)C2CCCCC2=O)cc1 (stereo not drawn) | -0.9% | 15% | 19%[46.1 µM] | -1% | -7% | -9% | 1% | 6%
Cc1cc(Cl)ccc1OCc1nc(-c2ccc(O)cc2)n[nH]1 | -9.8% | 19% | -44% | -147% | 34% | -10% | ? | -1%
CCC(C)(C(=O)NC1CCCC1)N(C(=O)CC1NC(=O)NC1=O)c1ccc(C)cc1 (stereo not drawn) | 3.3% | -2% | 2% | -4% | 4% | -10% | 0% | 3%
Cc1c(C(=O)NCCc2ccc3c(c2)OCCO3)oc2ccccc12 | -2.2% | -7% | -4% | -2% | -8%[3.69 µM] | -11% | 19% | 4%
COc1cccc(C(=O)NCc2cccnc2)c1 | 0.7% | 11% | 17% | -3% | -3% | 5% | 16% | 1%
Cc1ccc(OCCn2cnc3c(N)ncnc32)cc1 | 0.9% | 19% | -7% | 4% | 18% | 1% | 1% | 3%
O=C(CN1C(=O)CCSc2ccccc21)Nc1ccc2c(c1)OCO2 | 1.7% | -17% | ? | -4% | -8% | 3% | 9% | -12%
O=C(Nc1ccccc1)c1cc([N+](=O)[O-])ccc1N1CCNCC1 | . | -5% | -6%[46.1 µM] | -2% | -2% | 2% | -4%[46.1 µM] | .
CC1CCN(C(=O)Cn2nnc(-c3ccc(N)cc3)n2)CC1 | . | 0% | 29% | 6% | 1% | -1% | -3% | .
CCCOC(=O)C1=C(C)NC2=C(C(=O)CCC2)C1c1ccc(N(C)C)cc1 (stereo not drawn) | -3.2% | 11% | 0% | -1% | 12% | -1% | -16% | -11%
CCC(C)Sc1nnc(CSc2nc(C)cc(C)n2)n1C (stereo not drawn) | . | -9% | -4%[46.1 µM] | . | 15% | 2% | -1% | .
Cc1cc(NC(=O)CCC(=O)N(CC(=O)NC2CCCC2)Cc2ccc3c(c2)OCO3)no1 | . | -4% | -3%[46.1 µM] | -1% | 25% | -1% | -8%[46.1 µM] | .
NC(=O)CSCc1cccc(Br)c1 | 0.7% | 12% | 1% | 23% | -4% | -1% | -13% | -5%
CC1CN(C(=O)N2CCC(C(=O)NCCC3=CCCCC3)CC2)c2ccccc2O1 (stereo not drawn) | -3.0% | 1% | . | . | . | . | 4%[46.1 µM] | -7%
CCn1c(CC(=O)Nc2ccc(C)cc2)nnc1SCC(=O)N1CCOCC1 | . | -5% | -1%[46.1 µM] | -8% | 1% | 2% | 14%[46.1 µM] | .
CC1=C(C(N)=O)C(c2cccs2)NC(=S)N1 (stereo not drawn) | . | -8% | ? | 3% | -4% | 0% | 11% | .
CCC(=O)Nc1cc(-c2nn3c(C)nnc3s2)ccc1C | 0.4% | 44%[activator] | 12% | -18% | 17% | 1% | 13% | -6%
CCc1ccccc1NC(=S)N(Cc1ccc(C(=O)O)cc1)Cc1ccc(OC)c(OC)c1 | . | -6% | -13%[46.1 µM] | . | -12% | 3% | 19%[46.1 µM] | .
CC(C)c1ccc(N2C(=O)N(Cc3ccccc3Cl)c3ccccc3S2(=O)=O)cc1 | -1.5% | 0% | . | . | . | . | -18%[46.1 µM] | ?
CC1(C)CC(=O)C(C=NCC2CCN(C(=O)Nc3ccc(Cl)c(Cl)c3)CC2)=C(O)C1 | -5.6% | ? | 6%[46.1 µM] | 5% | -2% | ? | 0% | 24%
CC(=O)NCCNc1nc2c(S(=O)(=O)c3ccc(C)c(C)c3)nnn2c2ccc(Cl)cc12 | -24% | 2% | -2%[46.1 µM] | . | . | . | . | ?
Cc1ccc(NC(=O)NC2=NN(c3ccccc3)C(=O)/C2=C2/CCCN2C)cc1 | . | 19% | . | 14% | 5% | 1% | . | .
O=C(Cn1c(=O)oc2cc(S(=O)(=O)N3CCCCC3)ccc21)N1CCCCC1 | . | -12% | . | 13% | 9% | 0% | . | .
c1ccc(Nc2ncnc3sccc23)cc1 | . | -9% | 16%[46.1 µM] | -22% | -9% | 0% | -8%[46.1 µM] | .
